MT1-MMP act inh – blockers of MT1-MMP proenzyme processing, primary screen, HT1080 RFP-PRO-GFP cells, GFP/RFP fluorescence. Matrix metalloproteinase-14 (Homo sapiens), P50281. GFP/RFP ratio fluorescence, overnight; percent of plate control window, DMSO zero. GFP/RFP ratio change, % at 20 µM. 0.061% of 360,000 active. AID 651647, 2012;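 active = GFP/RFP ratio change of at least 30% with cell ATP level not reduced by more than half and red fluorescence within 50% of control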; note: strong numbers were not always called active
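Read-out: GFP/RFP fluorescence ratio; Test system: RFP-PRO-GFP reporter HT1080 cells; Compound dosing: single-point 20 µM compound, 1% DMSO; Times: overnight compound exposure at 37 °C.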
eIF4H inh – human eIF4H binding inhibitors, primary screen, translation initiation inhibitor project, biochemical, uHTS, fluorescence polarization. inhibition, % at 35 µM. eIF4H fluorescence polarization binding assay. AID 2012, 2009. 0.94% of 290,000 active;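 active = 50% or more with normal probe brightness, or confirmed in later tests; about a fifth of its hits are not listed in these tables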;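 note: calls also rest on retests at 20 µM and on dose response follow-up; 0% = protein and probe with vehicle and 100% = probe without protein; strong numbers were not always called active; many hits fall short of the cut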
UUG fidelity – modulators of yeast start codon fidelity, primary screen, whole organism, S. cerevisiae, single point, plate reader | S. cerevisiae UUG-firefly luciferase reporter, luminescence/redox ratio | activity score, % at 18.7 µM | 0.13% of 350,000 active | AID 602363, 2012;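 active = replicate mean at a twofold rise or more, about +100% in these data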;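 note: firefly luciferase made from a UUG start codon reports start codon fidelity; reporter light over untreated wells divided by growth signal over untreated wells; some hits fall short of that in this replicate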
Rce1 inhib – yeast Rce1p protease inhibitors, primary screen, biochemical, fluorescence, cell-free homogeneous; CAAX prenyl protease 2 (Saccharomyces cerevisiae (strain ATCC 204508 / S288c)), Q03530; yeast membranes, quenched prenylated peptide cleavage fluorescence; calls only; 0.27% of 290,000 active; AID 2563, 2010;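 active = fall in fluorescence gain of 50% or more versus controls, with final raw signal at or below 3038400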;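 note: plate controls were neutral control wells for no effect and wells lacking membranes for full effect; tested at 10 µM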
Target sequence (Q03530 whole entry, looked up): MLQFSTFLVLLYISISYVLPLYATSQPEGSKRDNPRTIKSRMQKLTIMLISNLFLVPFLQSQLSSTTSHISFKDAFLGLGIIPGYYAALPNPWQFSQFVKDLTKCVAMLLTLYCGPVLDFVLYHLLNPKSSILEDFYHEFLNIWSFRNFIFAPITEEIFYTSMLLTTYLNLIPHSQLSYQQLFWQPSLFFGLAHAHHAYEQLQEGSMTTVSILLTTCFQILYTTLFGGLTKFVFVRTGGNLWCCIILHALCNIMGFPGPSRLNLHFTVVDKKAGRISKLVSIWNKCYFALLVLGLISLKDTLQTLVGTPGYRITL
PABP FP inh – PABP poly(A) RNA binding inhibitors, primary screen, biochemical, fluorescence polarization, uHTS; Polyadenylate-binding protein 1 (Homo sapiens), P11940; AID 2014, 2009; inhibition, % at 35 µM; 1% of 290,000 active;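 active = 50% or more with normal probe brightness, or confirmed in later tests; about a fifth of its hits are not listed in these tables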;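 note: calls also rest on retests at 20 µM and on dose response follow-up; controls were probe without protein and protein plus probe with vehicle; some compounds called inactive have numbers as strong as hits; many hits fall short of the cut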
Target sequence (P11940 whole entry, looked up): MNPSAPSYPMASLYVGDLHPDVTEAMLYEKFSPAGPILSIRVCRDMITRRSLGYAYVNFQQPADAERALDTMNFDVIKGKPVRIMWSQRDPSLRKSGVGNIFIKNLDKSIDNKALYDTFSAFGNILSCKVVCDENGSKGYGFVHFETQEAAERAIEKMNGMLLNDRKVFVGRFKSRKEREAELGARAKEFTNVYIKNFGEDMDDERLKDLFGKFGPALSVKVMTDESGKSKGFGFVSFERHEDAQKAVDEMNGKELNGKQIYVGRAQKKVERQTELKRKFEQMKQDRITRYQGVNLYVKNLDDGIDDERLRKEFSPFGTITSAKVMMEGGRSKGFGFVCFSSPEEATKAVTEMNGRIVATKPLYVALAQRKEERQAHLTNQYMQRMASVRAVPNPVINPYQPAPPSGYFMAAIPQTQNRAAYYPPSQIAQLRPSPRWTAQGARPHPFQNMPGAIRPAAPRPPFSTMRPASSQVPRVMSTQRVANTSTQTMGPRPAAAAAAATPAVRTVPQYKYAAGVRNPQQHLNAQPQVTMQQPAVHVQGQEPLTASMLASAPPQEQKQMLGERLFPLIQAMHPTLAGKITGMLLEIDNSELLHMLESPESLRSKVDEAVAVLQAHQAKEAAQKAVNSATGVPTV
CSC inhib – cancer stem cell viability inhibitors, primary screen, luminescence; cancer stem cell-like cells viability; inhibition, % at 7.5 µM; 1.1% of 300,000 active; AID 2717, 2010;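 active = mean at 75% or more and at least half the replicates too; tested in HMLE shEcad cells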;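 note: 0% = median of negative and 100% = median of positive control wells; the first replicate is given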
Env fusion inh – inhibitors of HIV-1 Env-driven cell-cell fusion, primary screen, HeLa-JRFL effector, CEM21 target cells, luciferase; inhibition, % at 12.3 µM; 1.1% of 360,000 active;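 active = mean replicate inhibition score of at least 50 and every replicate individually at or above 50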;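 note: 0% = plate neutral controls and 100% = maraviroc near 300 nM; one replicate is shown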
MT1-MMP act inh RFP – recorded beside MT1-MMP act inh, whose call it bears; RFP signal change, %; measured here: RFP expression control read;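 0 = vehicle wells; hits needed this value within 50% of zero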
The depositor's hits bear a star; & = joins results of further samples; [ ] = dose if it differs, or a comment. No enrichment for hits, and some 2.9% of all compounds hit somewhere here.

For CC(=O)Nc1ccc(NC(=O)COc2ccc(-c3ccc(C#N)cc3)cc2)cc1 the results were MT1-MMP act inh 3, UUG fidelity -15, CSC inhib -8, Env fusion inh 4 and MT1-MMP act inh RFP 1.
Cc1nc(Nc2ccc(S(N)(=O)=O)cc2)sc1-c1ccccc1 was read as MT1-MMP act inh -6, eIF4H inh -5, UUG fidelity 3, Rce1 inhib inactive, PABP FP inh -2, CSC inhib 54, Env fusion inh -1 and MT1-MMP act inh RFP -9.
`CNC(C)C(=O)NC(C(=O)N1CCCC1C(=O)Nc1ccc2ncccc2c1)C(C)C` (stereo unspecified) gave MT1-MMP act inh 4, UUG fidelity -16, CSC inhib 18, Env fusion inh -61 and MT1-MMP act inh RFP 4.
For COc1ccc(/C=N/n2nnnc2N)cc1OC the results were MT1-MMP act inh 0, eIF4H inh 1, UUG fidelity -25, Rce1 inhib inactive, PABP FP inh 6, CSC inhib -11, Env fusion inh -7 and MT1-MMP act inh RFP 0.
Screening Cc1ccc(OCc2cccc(S(=O)(=O)N(C)C)c2)c([N+](=O)[O-])n1 returned MT1-MMP act inh 1, eIF4H inh -23, UUG fidelity -17, Rce1 inhib inactive, PABP FP inh -1, CSC inhib -21, Env fusion inh 9 and MT1-MMP act inh RFP -2.
`O=[N+]([O-])c1ccc(COc2ccccc2CN2CCOCC2)cc1` gave MT1-MMP act inh 4, UUG fidelity 4, Env fusion inh 7 and MT1-MMP act inh RFP -3.
Screening CN1C(=O)/C(=C/c2coc3ccc(O)cc3c2=O)SC1=S returned MT1-MMP act inh -1, eIF4H inh 2, UUG fidelity -12, Rce1 inhib inactive, PABP FP inh -3, CSC inhib 32, Env fusion inh 2 and MT1-MMP act inh RFP 59.
Screening Cc1cc(C)cc(N(CC(=O)NCC2CCCO2)C(=O)CCC(=O)Nc2cc(C)on2)c1 (stereo unspecified) returned MT1-MMP act inh -1, eIF4H inh -5, UUG fidelity -8, Rce1 inhib inactive, PABP FP inh -1, CSC inhib 2, Env fusion inh -40 and MT1-MMP act inh RFP -1.
Screening O=C(Cn1cnc2ccccc2c1=O)Nc1ccccc1N1CCOCC1 returned MT1-MMP act inh 2, eIF4H inh 7, UUG fidelity -10, Rce1 inhib inactive, PABP FP inh -6, CSC inhib 45, Env fusion inh 8 and MT1-MMP act inh RFP 2.
For CC(C)C(C)NC(=O)CN1C(=O)NC(c2ccccc2)(c2ccccc2)C1=O (stereo unspecified) the results were MT1-MMP act inh 0, eIF4H inh -8, UUG fidelity 6, Rce1 inhib inactive, PABP FP inh 4, Env fusion inh -4 and MT1-MMP act inh RFP 1.
For Cc1ccc(NC(=O)c2cc(C)n(-c3cccc(C)c3)c2C)cc1 the results were MT1-MMP act inh -4, eIF4H inh -4, UUG fidelity -20, Rce1 inhib inactive, PABP FP inh 0, CSC inhib -11, Env fusion inh -94 and MT1-MMP act inh RFP -5.
`COc1cccc(CNC(=O)Cc2ccc(OC)c(S(=O)(=O)N3CCOCC3)c2)c1` gave MT1-MMP act inh 1, Rce1 inhib inactive, CSC inhib -2, Env fusion inh -18 and MT1-MMP act inh RFP 1.
For O=C(c1n[nH]c(=O)c2ccccc12)N1CCN(c2ccccc2Cl)CC1 the results were MT1-MMP act inh 1, eIF4H inh 3, UUG fidelity -3, Rce1 inhib inactive, PABP FP inh 3, CSC inhib -22, Env fusion inh -198 and MT1-MMP act inh RFP 0.
`CC1C(=O)N2CCCc3cc(S(=O)(=O)N4CCCCC4)cc1c32` (stereo unspecified) gave MT1-MMP act inh 10, UUG fidelity 15, Rce1 inhib inactive, CSC inhib 12 and MT1-MMP act inh RFP 3.
`Cc1ccc(-c2nnc(SCC(=O)NC3CC3)o2)cc1` gave MT1-MMP act inh -2, eIF4H inh -4, UUG fidelity -16, Rce1 inhib inactive, PABP FP inh -8, CSC inhib -5, Env fusion inh -10 and MT1-MMP act inh RFP 2.
COC(=O)c1ccccc1CC1SC(N)=NC1=O (stereo unspecified) was read as MT1-MMP act inh 3, eIF4H inh 10, UUG fidelity -1, Rce1 inhib inactive, PABP FP inh -10, Env fusion inh -12 and MT1-MMP act inh RFP 6.
CC(C)CC(=O)NC(=S)Nc1ccc(Cl)cn1 was read as MT1-MMP act inh 0, eIF4H inh 4, UUG fidelity -20, Rce1 inhib inactive, PABP FP inh 2, CSC inhib -17, Env fusion inh -22 and MT1-MMP act inh RFP 3.
`O=C(NCC1CCCO1)C1CCN(CC2CCCCC2)CC1` (stereo unspecified) gave MT1-MMP act inh -2, eIF4H inh -4, UUG fidelity 5, Rce1 inhib inactive, PABP FP inh 12 and MT1-MMP act inh RFP 2.
CCOC(=O)Cc1cc(=O)n2[nH]c(-c3ccc(Cl)cc3)cc2n1 was read as MT1-MMP act inh -3, eIF4H inh 19, Rce1 inhib inactive, PABP FP inh 6, CSC inhib -5 and MT1-MMP act inh RFP 6.
`COc1cc(C(C)=O)ccc1OCC(=O)Nc1ccccc1N1CCCC1` gave MT1-MMP act inh -1, eIF4H inh -12, UUG fidelity -6, Rce1 inhib inactive, PABP FP inh 1, CSC inhib -36 and MT1-MMP act inh RFP -6.
For Cc1ccc(N(CC(=O)NCC2CCCO2)C(=O)Cn2nnc(-c3cccs3)n2)cc1 (stereo unspecified) the results were MT1-MMP act inh 7, eIF4H inh -4, UUG fidelity 0, Rce1 inhib inactive, PABP FP inh 3, CSC inhib -7, Env fusion inh -23 and MT1-MMP act inh RFP 0.
O=C1CSC(=S)N1Nc1ccccc1 was read as MT1-MMP act inh 3, UUG fidelity -20, Env fusion inh 20 and MT1-MMP act inh RFP 35.
Screening C[C@H](CO)N1C[C@H](C)[C@@H](CN(C)C(=O)Nc2ccccc2)Oc2ccc(NC(=O)Nc3ccccc3)cc2C1=O returned MT1-MMP act inh 3, UUG fidelity -5&13, CSC inhib 8, Env fusion inh -11[16.7 µM] and MT1-MMP act inh RFP 5.
COc1cccc(-n2c(C)cc(/C=C3\C(=N)N4N=C(CC(=O)N5CCOCC5)SC4=NC3=O)c2C)c1 was read as MT1-MMP act inh -4, eIF4H inh 14, UUG fidelity -7, Rce1 inhib inactive, PABP FP inh 4, CSC inhib -6, Env fusion inh 2 and MT1-MMP act inh RFP 4.
For COCCOC(=O)C(CC(=O)O)NCc1ccco1 (stereo unspecified) the results were MT1-MMP act inh -1, eIF4H inh 4, UUG fidelity -3, Rce1 inhib inactive, PABP FP inh -4, CSC inhib -20, Env fusion inh -5 and MT1-MMP act inh RFP 3.
`CC1(Oc2ccc(CC#N)cc2)CCN(Cc2ccc(-n3ccnc3)cc2)C1` (stereo unspecified) gave MT1-MMP act inh -1, UUG fidelity -17, Env fusion inh -6 and MT1-MMP act inh RFP -3.
COc1ccc(CCNC(=O)CSc2nnc3ccc(-c4ccccn4)nn23)cc1 was read as MT1-MMP act inh 1, UUG fidelity -20, Rce1 inhib inactive, Env fusion inh 3 and MT1-MMP act inh RFP -2.
CCc1cc2c(=O)n(CCC(C)C)c(=S)[nH]c2s1 was read as MT1-MMP act inh 6, eIF4H inh 10, Rce1 inhib inactive, PABP FP inh 5, CSC inhib 45, Env fusion inh -14 and MT1-MMP act inh RFP -4.
Screening COc1ccc(OC)c(CN2CCCC(C(=O)c3ccccc3SC)C2)c1 (stereo unspecified) returned MT1-MMP act inh -2, eIF4H inh -5, Rce1 inhib inactive, PABP FP inh -8, CSC inhib 9, Env fusion inh 34 and MT1-MMP act inh RFP -1.
O=C(O)c1cc(S(=O)(=O)N(Cc2ccccc2)c2cccc(C(F)(F)F)c2)ccc1Cl was read as MT1-MMP act inh 0, eIF4H inh -2, UUG fidelity -3, Rce1 inhib inactive, PABP FP inh 7, CSC inhib 10, Env fusion inh -1 and MT1-MMP act inh RFP -5.
Screening CC(CCc1ccccc1)NC(=O)CCN1N=C(c2ccccc2)CCC1=O (stereo unspecified) returned MT1-MMP act inh 3, eIF4H inh 1, UUG fidelity -18, Rce1 inhib inactive, PABP FP inh -10, Env fusion inh -3 and MT1-MMP act inh RFP 1.
For O=C(Nc1cn(-c2ccccc2)nc1-c1ccc(F)cc1)c1ccccc1 the results were MT1-MMP act inh -3, eIF4H inh -7, UUG fidelity -27, Rce1 inhib inactive, PABP FP inh -5, CSC inhib -13 and MT1-MMP act inh RFP -5.
Screening CC(C)(C)c1ccc(C(=O)NCCOc2ccccc2F)cc1 returned MT1-MMP act inh 3, eIF4H inh -4, UUG fidelity -79, Rce1 inhib inactive, PABP FP inh 9, CSC inhib 0, Env fusion inh -7 and MT1-MMP act inh RFP 4.
`CCN(C(=O)CSc1nnc(COc2cccc(C)c2)o1)c1nc(C)cs1` gave MT1-MMP act inh 2, eIF4H inh 1, UUG fidelity -23, Rce1 inhib inactive, PABP FP inh -5, CSC inhib -17, Env fusion inh -3 and MT1-MMP act inh RFP 2.
Cc1noc(C)c1S(=O)(=O)NCc1cccc(Cl)c1 was read as MT1-MMP act inh 3, UUG fidelity 1, CSC inhib -7 and MT1-MMP act inh RFP 0.
For CCOCCn1c(CN2CCCC(C)C2)nc2c1c(=O)n(C)c(=O)n2C (stereo unspecified) the results were MT1-MMP act inh 2, eIF4H inh -2, UUG fidelity -9, Rce1 inhib inactive, PABP FP inh 12, CSC inhib -7, Env fusion inh -34 and MT1-MMP act inh RFP 5.
Screening CC(=O)c1ccc(NC(=O)CCC(=O)OCC(=O)c2cccc([N+](=O)[O-])c2)cc1 returned MT1-MMP act inh 3, eIF4H inh -7, Rce1 inhib inactive, PABP FP inh 0, CSC inhib -2 and MT1-MMP act inh RFP 6.
For CC(C)c1[nH]nc2c1C(C(C)C)C(C#N)=C(N)O2 (stereo unspecified) the results were MT1-MMP act inh -5, eIF4H inh -10, UUG fidelity -17, Rce1 inhib inactive, PABP FP inh -1, CSC inhib 7, Env fusion inh -5 and MT1-MMP act inh RFP -1.
O=C(Nc1cccc(-n2cnnn2)c1)c1cc(Cl)ccc1Cl was read as MT1-MMP act inh 0, eIF4H inh -3, UUG fidelity -21, Rce1 inhib inactive, PABP FP inh 7, CSC inhib -1, Env fusion inh 4 and MT1-MMP act inh RFP -2.
Screening COC(=O)c1nccnc1C(=O)Nc1ccccc1N1CCOCC1 returned MT1-MMP act inh 0, eIF4H inh 0, UUG fidelity -18, Rce1 inhib inactive, PABP FP inh 3, CSC inhib 20, Env fusion inh 8 and MT1-MMP act inh RFP 6.
O=C(Nc1ccc(-c2n[nH]c(=S)o2)cc1)c1ccccc1Br was read as MT1-MMP act inh -3, eIF4H inh -6, UUG fidelity -24, Rce1 inhib inactive, PABP FP inh 14, CSC inhib -8, Env fusion inh -6 and MT1-MMP act inh RFP 0.

As a short view, 3 of the compounds above:
O=C(Nc1cccc(-n2cnnn2)c1)c1cc(Cl)ccc1Cl was read as MT1-MMP act inh 0, eIF4H inh -3, UUG fidelity -21, Rce1 inhib inactive, PABP FP inh 7, CSC inhib -1, Env fusion inh 4 and MT1-MMP act inh RFP -2.
Screening COC(=O)c1nccnc1C(=O)Nc1ccccc1N1CCOCC1 returned MT1-MMP act inh 0, eIF4H inh 0, UUG fidelity -18, Rce1 inhib inactive, PABP FP inh 3, CSC inhib 20, Env fusion inh 8 and MT1-MMP act inh RFP 6.
O=C(Nc1ccc(-c2n[nH]c(=S)o2)cc1)c1ccccc1Br was read as MT1-MMP act inh -3, eIF4H inh -6, UUG fidelity -24, Rce1 inhib inactive, PABP FP inh 14, CSC inhib -8, Env fusion inh -6 and MT1-MMP act inh RFP 0.

Compound activity deposited in PubChem BioAssay by several laboratories.
